High-throughput results: PubChem, National Center for Advancing Translational Sciences (NCATS)
VACV Venus inh: inhibitors of vaccinia virus (Venus reporter). Potency, µM (doses to about 36.5 µM), inactives show top-dose activity change, negative = inhibition, hits mostly inhibitors. 0.46% of 330,000 active. Vaccinia virus Venus reporter expression, fluorescence; active means well fitted inhibition curve with a large enough effect; inconclusive means small, poorly fitted or top-dose-only effect; inactive means no such curve, though single readings can be large or run the other way; tested in A549 cells; note: nearly all actives have a fitted effect of over 30% in size; inactives centre near -10
Vaccinia mCherry: vaccinia inhibition (mCherry reporter); Vaccinia virus mCherry reporter infection, fluorescence; about a quarter of the inactives have no number; Potency, µM (doses to about 36.5 µM), without a hit: at the top dose activity change, negative = inhibition, most hits filed as inhibitors; 0.63% of 310,000 active; AID 720579; active = well fitted inhibition curve with a large enough effect; inconclusive = small, poorly fitted or top-dose-only effect; inactive = no such curve, though single readings can be large or run the other way; tested in A549 cells; note: nearly all actives have a fitted effect of over 35% in size; inactives centre near -10
* = called active by the depositor; i = inactive; ? = inconclusive; . = not tested or not shown; & = joins results of further samples; [ ] = dose if it differs, or a comment. % is set by controls: 0 for no effect and ±100 for the full control effect; potency is the fitted concentration of half-maximal effect.

SMILES	VACV Venus inh	Vaccinia mCherry
O=C(CCNC(=O)c1ccccc1Cl)NCC1CCCO1 (centres undefined)	-6%	-3%
S=c1[nH]c(=S)c2[nH]cnc2[nH]1	-12%	-18%
S=c1[nH]nc(CSc2nc3ccccc3s2)n1Cc1ccccc1	-8%	-5%
CCCCCCN1C[C@@H](n2cc(COC(=O)c3ccccc3)nn2)[C@H](O)C[C@@H]1c1ccc(Cl)cc1	-26%	i
CCOc1ccc(C(=O)Cn2cnnc2C#N)cc1	-5%	-15%
Cc1c(/C(O)=C2/C(=O)C(=O)N(CCN3CCOCC3)C2c2ccccn2)cnn1-c1ccccc1 (centres undefined)	1%	-9%
COc1ccc(-c2nnc(NC(=O)C(C)C)o2)cc1	-9%	i
COc1ccc(C(=O)N2CC(=O)Nc3ccc(C)cc3C2c2ccccc2)cc1 (centres undefined)	0%	i
O=C(N/C(=C/c1ccc(Cl)cc1)C(=O)N1CCCC1)c1ccccc1	-17%	-5%
O=C(CSc1nnc(Cc2cccs2)n1C1CCCCC1)N1CCCc2ccccc21	-4%	i
N#CC1=C(N)N(c2ccc(Oc3ccccc3)cc2)C(=O)C1	0%	.
O=c1oc(CCO)cc2ccc(-c3ccc4[nH]ccc4c3)cc12	-26%	-14%
CC1(C)CC(=O)c2cnc(N3CCN(c4ccccc4)CC3)nc2C1	-7%	.
Cc1ccc(CNC(=O)Nc2ccc3c(c2)N(C)C(=O)CS3)cc1	-24%	-9%
Cc1c(-c2ccccc2)cn2c1-c1ccc(C)n1CC2	2%	-6%
CCOC(=O)c1c(NC(=O)CN2CCN(c3cccc(Cl)c3)CC2)sc(C)c1C	0%	-6%
CCN1CNC(=S)N(c2ccccc2OC)C1	-11%	-3%
CCOc1ccc(N2C(=O)CSC23CCCCC3)cc1	-10%	-1%
O=C(CN1C(=O)C2CC=CCC2C1=O)Nc1ccccc1N1CCCC1 (centres undefined)	-13%	-11%
Cc1cc(F)ccc1S(=O)(=O)N1CCCOC1CNC(=O)C(=O)NC1CCCC1 (centres undefined)	-6%	-19%
COCCCNC(=O)CSC1=Nc2ccccc2C2=NC(CCC(=O)NCc3ccccc3OC)C(=O)N12 (centres undefined)	-13%	i
CC(C)(C)S(=O)c1cccs1 (centres undefined)	-6%	-8%
COc1cccc(C(CNC(=O)C2CCN(C(=O)Nc3ccccc3)CC2)N(C)C)c1 (centres undefined)	-13%	i
CCCOC(=O)c1ccc(NC(=O)CN(C)Cc2cccs2)cc1	-9%	i

Rewritten with two lines to a compound: part of the list above.
Sequence of screens: VACV Venus inh, Vaccinia mCherry
CC1(C)CC(=O)c2cnc(N3CCN(c4ccccc4)CC3)nc2C1
  -7%, .
Cc1ccc(CNC(=O)Nc2ccc3c(c2)N(C)C(=O)CS3)cc1
  -24%, -9%
Cc1c(-c2ccccc2)cn2c1-c1ccc(C)n1CC2
  2%, -6%

The list continues:
SMILES	VACV Venus inh	Vaccinia mCherry
O=C(O)COc1ccccc1/C=N/NC(=O)CSc1nc2ccccc2n1Cc1ccccc1Cl	8%	-27%
CC(=O)Nc1ccc(NC(=O)CSc2nc(=O)n(Cc3cccnc3)c3c2CCC3)cc1	-10%	-17%
CC(OC(=O)c1cc(=O)[nH]c2ccccc12)C(=O)NC1CCCC1 (centres undefined)	-9%	-3%
CCOC(=O)c1c(NC(=O)CSc2nc(-c3ccccc3)cc(C(F)(F)F)n2)sc(C)c1C	7%	3%
Cc1onc(-c2ccccc2)c1C(=O)n1nnc2ccccc21	-8%	-7%
CCN1/C(=C/c2ccc3ccc(C)cc3[n+]2CC)Sc2ccccc21	449%[activator]	?
C=C1CCC2C(C)(C)[C@H](O)CC[C@@]2(C)[C@@H]1COc1cc(=O)oc2ccccc12 (some centres undefined)	?	-11%
Brc1cc2c(cc1/C=N/Nc1nc3ccccc3s1)OCO2	-9%	-13%
COc1ccc(C(=O)C(OC(=O)c2ccccc2)c2ccccc2)cc1 (centres undefined)	-8%	-18%
CCn1c(CN2CCOCC2)nnc1SCC(=O)Nc1ccc(C)cc1	-13%	-3%
CC(Oc1ccc(C(=O)c2ccccc2)cc1)C(=O)N1CCOCC1 (centres undefined)	-15%	i
CCCC1=Nc2cc(C(=O)N3CCCC3)ccc2Sc2ccc(C)cc21	?	?
COc1ccc(NC(=O)CSc2nnc(N)s2)cc1	-9%&-8%	-12%
N#CCSc1ccccc1NC(=O)COC(=O)CCN1C(=O)C2CC=CCC2C1=O (centres undefined)	-3%	-8%
CCc1ccc(NC(=O)CSc2nc3ncccc3[nH]2)cc1	-11%	-2%
COC(=O)c1ccc(CNC(=O)COC(=O)CNS(=O)(=O)c2ccc(C)cc2)cc1	5%	i
COc1cc(OC)cc(-c2cc3nc(C)c(CCC(=O)Nc4ccc(C(C)=O)cc4)c(C)n3n2)c1	-14%	-11%
CC(c1ccco1)N(C(=O)c1cc(Cl)cc(Cl)c1)c1ccccn1 (centres undefined)	-3%	-17%
CCC(c1nnc(SCC(=O)NCCc2ccc(Cl)cc2Cl)o1)N(C)C (centres undefined)	-16%	i
O=C(CCC1N=C2c3ccccc3N=C(SCC(=O)Nc3ccccc3F)N2C1=O)NCc1ccccc1 (centres undefined)	-9%	-3%
O=C(c1ccccc1)N1CCN(C(=O)c2cc3nc(-c4ccccc4)cc(C(F)(F)F)n3n2)CC1	-8%	-12%
CN(Cc1ccccc1C(F)(F)F)C(=O)C1CCC(=O)N(CC2CCCCC2)C1 (centres undefined)	-15%	i
CCOc1ccc(OCC)c(NC(=O)CSc2nnnn2CC)c1	-6%	-10%
CCN(C(=O)COC(=O)c1ccccc1NCCO)c1cccc2ccccc12	-10%	-23%
CCOCCCNC(=S)N(Cc1ccccc1)Cc1nc2ccccc2c(=O)[nH]1	-17%	-25%
CCN(CC)CCC(c1ccc(N(C)C)cc1)c1c(OC)cc(OC)c2ccc(=O)oc12 (centres undefined)	-11%	?
Cn1c(CNS(=O)(=O)c2ccc(Br)cc2)n[nH]c1=S	-3%	-1%
CC(C)c1cccc(C(C)C)c1NC(=O)COC(=O)c1ccc2c(c1)S(=O)(=O)c1ccccc1C2=O	-10%	i
COc1ccccc1NC(=O)Nc1ccccc1C#N	-9%	i
Cc1ccccc1S(=O)(=O)N1[C@@H](c2cccc(Cl)c2)C(C(=O)OC(C)(C)C)=CC[C@H]1c1ccc(Cl)cc1	-8%	0%
COC(=O)[C@]1(Cc2ccccc2)N[C@H](CN(C)C(=O)Nc2ccc(C(F)(F)F)cc2)[C@@H]2C(=O)N(Cc3ccccc3)C(=O)[C@@H]21	10µM*	?
O=C(COC(=O)c1cc(-c2ccco2)nc2ccccc12)NCc1ccc2c(c1)OCO2	-2%	.
O=C(COC(=O)Cc1ccc(Br)cc1)NC1CCCCCC1	2%	i
Cc1cnc(C(=O)OCC(=O)Nc2sc3c(c2C#N)CCC3)cn1	0%	-9%
Oc1cccc(Nc2nc(NCC3CCCO3)c3ccccc3n2)c1 (centres undefined)	?	?
CN(C)CCNC(=O)c1ccc(Cn2c(=O)c3cccn3c3cccnc32)cc1	-6%	-12%
COc1ccc(NC(=O)c2cccc(-n3c(C)ccc3C)c2)c(OC)c1	-18%	-10%
CN1CCN(S(=O)(=O)c2ccc(N3CCN(S(=O)(=O)c4cccs4)CC3)nc2)CC1	-6%	.
Cc1ccc(NC2Nc3cc(C)nn3S2)c(C)c1 (centres undefined)	-5%	-5%
COc1ccc(Br)cc1S(=O)(=O)Nc1cc(-c2cn3ccccc3n2)ccc1C	-14%	-23%
CCCCn1cc(S(=O)(=O)c2ccc(C)c(C)c2)c(=O)c2cc(F)c(N3CCCC(C)C3)cc21 (centres undefined)	-21%	0%
COc1ccc(C(=O)N2CCC(c3ccccc3)CC2)c(OC)c1OC	-11%	i
COc1ccc(Br)cc1CN1CCCCCC1	-9%	-8%
O=C(CCCn1c(=O)c2cccn2c2ccc(F)cc21)NCCc1ccccc1	-7%	-7%
CCCCn1c2nc3ccccc3nc2c2c(=O)n(CCC)cnc21	-16%	.
CCCCn1c(N)c(N(CCOC)C(=O)C2CCN(S(=O)(=O)c3ccc(F)cc3)CC2)c(=O)[nH]c1=O	-9%	-11%
COc1ccc(CNC2CCSc3ccccc32)cc1OC (centres undefined)	-18%	-3%
CCOc1ccc(CCNC(=O)COC(=O)CNS(=O)(=O)c2ccc(NC(C)=O)cc2)cc1OCC	-11%	i

Structures from the list above that contain a tert-butyl group, in the order listed:
SMILES	VACV Venus inh	Vaccinia mCherry
CC(C)(C)S(=O)c1cccs1 (centres undefined)	-6%	-8%
Cc1ccccc1S(=O)(=O)N1[C@@H](c2cccc(Cl)c2)C(C(=O)OC(C)(C)C)=CC[C@H]1c1ccc(Cl)cc1	-8%	0%

Exported as a markdown table: 7 of the compounds above.
| SMILES | VACV Venus inh | Vaccinia mCherry |
| --- | --- | --- |
| COc1ccc(C(=O)N2CCC(c3ccccc3)CC2)c(OC)c1OC | -11% | i |
| COc1ccc(Br)cc1CN1CCCCCC1 | -9% | -8% |
| O=C(CCCn1c(=O)c2cccn2c2ccc(F)cc21)NCCc1ccccc1 | -7% | -7% |
| CCCCn1c2nc3ccccc3nc2c2c(=O)n(CCC)cnc21 | -16% | . |
| CCCCn1c(N)c(N(CCOC)C(=O)C2CCN(S(=O)(=O)c3ccc(F)cc3)CC2)c(=O)[nH]c1=O | -9% | -11% |
| COc1ccc(CNC2CCSc3ccccc32)cc1OC (centres undefined) | -18% | -3% |
| CCOc1ccc(CCNC(=O)COC(=O)CNS(=O)(=O)c2ccc(NC(C)=O)cc2)cc1OCC | -11% | i |

(listing goes on)
SMILES	VACV Venus inh	Vaccinia mCherry
O=C(Nc1cc([N+](=O)[O-])ccc1N1CCCC1)c1cccs1	-11%	-2%
CCC(=O)NC(c1ccccc1Cl)c1c(O)ccc2ccccc12 (centres undefined)	-16%	-2%
COC(=O)c1cnn(-c2ccccc2)c1C(OC)OC	-18%	i
O=C(CCC(=O)N1CCSc2ccccc21)NC1CCCCC1	-6%	-8%
COc1ccc(C(=O)Cc2ccc(OC)c(OC)c2)cc1	-16%	i
O=C(COc1ccccc1)NCc1n[nH]c(=S)n1-c1ccccc1	-10%	-7%
COc1cc(N)c(Cl)cc1C(=O)OCC(=O)NC1CCCC1	7%	-10%
Cc1cc(C)c(S(=O)(=O)N2CCN(C(=O)c3ccccc3OCc3c(C)noc3C)CC2)c(C)c1	-21%	-5%
CC(C)C(=O)N1CCC(CN=Cc2c(O)n(C3CCCCC3)c(=O)n(C3CCCCC3)c2=O)CC1	?	-4%[1.46 µM]
CC(=O)C(Cc1ccccc1)NC(=O)CN1CCc2ccccc2C1 (centres undefined)	?	?
Cc1cccc(C)c1NC(=O)COC(=O)CSc1nnc(N)s1	-6%	i
CN(C)C(=O)Cn1c(SCC(=O)Nc2ccc3c(c2)OCO3)nc2ccccc21	-17%	.

Some of the entries above in a different format.
Values run as follows: VACV Venus inh, Vaccinia mCherry
Cc1c(-c2ccccc2)cn2c1-c1ccc(C)n1CC2
  2%, -6%
CCOC(=O)c1c(NC(=O)CN2CCN(c3cccc(Cl)c3)CC2)sc(C)c1C
  0%, -6%

(further entries)
SMILES	VACV Venus inh	Vaccinia mCherry
Cc1cc(C=C2C(=O)NC(=S)NC2=O)c(C)n1C1CCCC1	12%	i
Cc1cccc(CN2CCC(C(=O)Nc3ccc(Oc4cccnc4)cc3)CC2)c1	-20%	-6%
COc1ccc(CNC(=O)c2cnn(-c3ccc(C)cc3)c2-n2cccc2)cc1OC	?	?
O=C(NC1CCCCC1NC(=O)c1cccs1)c1cccs1 (centres undefined)	-2%	-5%
COc1ccc(CN(CC(=O)NCc2ccc(F)cc2)C(=O)c2csnn2)cc1	-6%	-6%
O=C(c1ccccc1F)N(Cc1nc2ccccc2c(=O)[nH]1)C1CCCC1	-10%	-2%
Cc1cn(COC/C=C/c2ccccc2)c(=O)[nH]c1=O	-11%	i
CCN(CC)C(=O)[C@H]1C[C@H](CC(=O)NCC23CC4CC(CC(C4)C2)C3)C(=O)N2CCc3c([nH]c4cc(CCC(=O)N(C)C)ccc34)[C@]12C	?	?
COc1ccc(C)cc1Nc1nnc(C)c(=O)[nH]1	2%	i
CCN(CC)c1ccc(S(=O)(=O)N2CCOCC2)cc1NC(=O)COC(=O)COc1ccccc1C	-13%	-10%
C=CCc1ccccc1OCCSc1nc(-c2ccc(C(C)(C)C)cc2)nc2cc(=O)[nH]n12	5%	-5%
Cc1ccc(NC(=O)c2cc(Cl)ccc2[N+](=O)[O-])cc1C	9%	?
O=C(Nc1nc2ccccc2[nH]1)C1CCN(S(=O)(=O)c2cccs2)CC1	-16%	.
COC(=O)[C@H](CCSC)NC(=O)NCc1ccccc1F	-17%	-21%
O/N=C/c1cccc[n+]1CCCCCC[n+]1ccccc1/C=N/O	0%	i
CN(C)c1ccc(C(=O)NCc2ccc3c(c2)CCO3)cc1	-15%	-5%
CN(C)N1C(N)=C(C#N)C(c2ccc3c(c2)OCO3)C2=C1CCCC2=O (centres undefined)	-18%	-6%
Cc1cccc(C)c1NC(=O)C(c1ccc(C#N)cc1)n1c(=O)c(-c2ccco2)nc2ccccc21 (centres undefined)	6%	i
O=C(CN1C(=O)NC2(CCCC2)C1=O)N1CCN(S(=O)(=O)c2ccccc2F)CC1	-12%	-23%
O=C(NC1CCCCC1)c1ccc2c(c1)N(Cc1ccccc1F)C(=O)c1ccccc1S2	-2%	-4%
